Bioassay records (PubChem)
HPGD block: HPGD (human) dehydrogenase inhibition; P15428; purified HPGD, NADH fluorescence kinetic, PGE2 substrate; Potency, µM, for inactives: at the highest dose activity change, negative = inhibition, actives largely listed as inhibitors; hit rate 4.3% among 150,000; AID 894; active = well fitted inhibition curve with a large enough effect (not every such curve was filed as active); inconclusive = small, poorly fitted or top-dose-only effect, or another doubt; inactive = no such curve, though single readings can be large or run the other way;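 further: top concentration of the series not given in the record; plate controls included wells without enzyme; inactives centre near -10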
Target sequence (P15428 whole entry, looked up): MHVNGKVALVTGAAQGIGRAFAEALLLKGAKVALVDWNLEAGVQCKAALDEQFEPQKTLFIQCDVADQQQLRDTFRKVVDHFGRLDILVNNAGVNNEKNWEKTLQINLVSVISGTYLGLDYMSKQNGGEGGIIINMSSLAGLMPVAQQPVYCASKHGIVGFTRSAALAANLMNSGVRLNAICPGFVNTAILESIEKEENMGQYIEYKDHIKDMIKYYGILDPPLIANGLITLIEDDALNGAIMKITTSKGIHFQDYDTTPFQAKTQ
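NADH formation kinetics: reaction with 30 uM PGE2 and 1 mM NAD+ (final), 20 nM enzyme, Tris-HCl pH 8 with Tween 20, after 15 min compound preincubation at room temperature. Fluorescence change, last versus first of five reads.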
An asterisk follows results filed as active. On the % scale 0 is the no-effect control and ±100 the full control effect; potency means the concentration at half of the fitted maximal effect. The list is partial (hit frequency here may not be typical).

c1nc(NCCN2CCOCC2)c2c3c(sc2n1)CCCCC3 was read as HPGD block -8%.
Screening C=CCN1C(=O)CC(C(=O)NC)SC1=Nc1ccc(C(=O)OCC)cc1 (stereo not drawn) returned HPGD block -2%.
`COc1ccc(S(=O)(=O)N(C)Cc2cccs2)cc1Br` gave HPGD block -29%.
For C[C@@]12CC(=O)[C@@H]3[C@@H](CCC4=CC(=O)CC[C@]43C)[C@@H]1CC=C2CC(=O)O the results were HPGD block -6%.
Screening Cc1cccc(-c2c3c(=O)n(C)c(=O)n(C)c3cn2CC2CCCO2)c1 (stereo not drawn) returned HPGD block -21%.
For O=C1CC(c2cc(Br)ccc2F)c2cc3c(cc2N1)CCC3 (stereo not drawn) the results were HPGD block -10%.
For Cc1onc(-c2c(F)cccc2Cl)c1C(=O)Nc1sc2c(c1C#N)CCC(C(C)(C)C)C2 (stereo not drawn) the results were HPGD block inconclusive.
`C=C1C2c3ccccc3C(CC2(C)O[Si](C)(C)C)N1C(=O)OC` (stereo not drawn) gave HPGD block -2%.
O=C(OCC1CC(c2ccccn2)=NO1)c1ccc(Br)cc1 (stereo not drawn) was read as HPGD block -7%.
Screening CCOc1ccc(-c2noc(COC)n2)cc1OC returned HPGD block -9%.
For CC(c1ccccc1C(O)(c1ccccc1)c1ccccc1)N(C)C (stereo not drawn) the results were HPGD block -9%.
For c1ccc(-c2nc(CSc3n[nH]c(-c4cccs4)n3)cs2)cc1 the results were HPGD block 4µM*.
O=C(Nc1ccccn1)NC1CCCCC1 was read as HPGD block -11%.
Screening CCn1c(SCC(=O)Nc2ccc(C(C)=O)cc2)nc2ccccc21 returned HPGD block -23%.
Screening Cc1ccc(S(=O)(=O)N(CC(=O)N2CCC(C(N)=O)CC2)Cc2ccc(F)cc2)cc1 returned HPGD block 3%.
Cn1cnnc1SCC(=O)Nc1ccccc1C(=O)NC1CCCC1 was read as HPGD block -2%.
COc1ccc(NC(=O)c2ccc(CNc3c(NC4CCCCC4)c(=O)c3=O)cc2)cc1OC was read as HPGD block 18µM*.
For CN(C)S(=O)(=O)c1cccc(NC(=O)c2cc(-c3cccs3)nn2-c2ccccc2)c1 the results were HPGD block inconclusive.
CC(C)CC1=NC(C(F)(F)F)(C(F)(F)F)c2c(n(CC(C)C)c(=O)[nH]c2=O)N1 was read as HPGD block 0%.
O=C(CCC1CCCC1)Nc1ccc(OCC(=O)N2CCOCC2)cc1 was read as HPGD block -11%.
For CCOC(=O)c1sc(N)c(C#N)c1CSc1nnc(C2CC2)n1N the results were HPGD block -4%.
O=C(ON=C1CCN(S(=O)(=O)c2ccccc2)CC1)c1cccc(Cl)c1 was read as HPGD block -11%.
Screening O=S(=O)(c1ccc(Cl)nc1)N1CCN(Cc2ccc3c(c2)OCO3)CC1 returned HPGD block -3%.
For O=C(Nc1ccccc1)NC1(C(=O)N2CCN(C(=O)c3ccco3)CC2)CCCCC1 the results were HPGD block 0%.
For COc1ccc(-c2csc(NC(=O)c3cc(C)on3)c2C#N)cc1OC the results were HPGD block -28%.
`CCOC(=O)Cn1c(-c2ccccn2)nc2ccccc21` gave HPGD block inconclusive.
For COc1cc2ncnc(Nc3ccc(F)c(Cl)c3)c2cc1OCCCN1CCOCC1 the results were HPGD block -12%.
`Cc1ccc(S(=O)(=O)C2(C(=O)Nc3nccs3)CC2)cc1` gave HPGD block -13%.
Screening O=C1NC(=Nc2ccccc2)/C(=C/c2ccco2)S1 returned HPGD block -14%.
For CCOC(=O)C(C)(C)N(Cc1cccc(C)c1)S(=O)(=O)c1ccc(Cl)c([N+](=O)[O-])c1 the results were HPGD block -10%.

The list goes on, starting with the last 7 of the part before.
For O=C(Nc1ccccc1)NC1(C(=O)N2CCN(C(=O)c3ccco3)CC2)CCCCC1 the results were HPGD block 0%.
For COc1ccc(-c2csc(NC(=O)c3cc(C)on3)c2C#N)cc1OC the results were HPGD block -28%.
`CCOC(=O)Cn1c(-c2ccccn2)nc2ccccc21` gave HPGD block inconclusive.
For COc1cc2ncnc(Nc3ccc(F)c(Cl)c3)c2cc1OCCCN1CCOCC1 the results were HPGD block -12%.
`Cc1ccc(S(=O)(=O)C2(C(=O)Nc3nccs3)CC2)cc1` gave HPGD block -13%.
Screening O=C1NC(=Nc2ccccc2)/C(=C/c2ccco2)S1 returned HPGD block -14%.
For CCOC(=O)C(C)(C)N(Cc1cccc(C)c1)S(=O)(=O)c1ccc(Cl)c([N+](=O)[O-])c1 the results were HPGD block -10%.
Screening CCCCC(=O)Nc1cc(OCC)c(NC(=O)c2ccccc2[N+](=O)[O-])cc1OCC returned HPGD block -10%.
Screening COc1ccccc1CNC(=O)COC(=O)/C=C/c1cccs1 returned HPGD block -17%.
Screening CN(C)CC(O)COc1cccc(OCC(O)CN(C)C)c1 (stereo not drawn) returned HPGD block -9%.
Screening O=C1c2ccccc2C(=O)N1CCCCN(C(=O)c1ccc([N+](=O)[O-])cc1)c1ccc(Cl)cc1 returned HPGD block -6%.
O=C(Cc1ccccc1)N1CCC(c2nc3ccccc3[nH]2)CC1 was read as HPGD block -9%.
COc1ccc(N2CCN(Cc3cc(=O)oc4c3ccc3ccccc34)CC2)cc1 was read as HPGD block -2%.
`COc1cc(/C=N/N=C2/C(=O)Nc3ccccc32)cc(OC)c1O` gave HPGD block inconclusive.
`c1ccc(Cn2nnnc2C(c2ccccc2)N2CCN(c3nc4ccccc4s3)CC2)cc1` (stereo not drawn) gave HPGD block -9%.
Screening COc1cccc([C@@H]2Oc3ccc(Br)cc3[C@H](O)[C@H]2O)c1 returned HPGD block -14%.
`O=C(Oc1cccc2c(=O)[nH]ccc12)c1ccccc1` gave HPGD block -8%.
For CCOC(=O)c1nn(-c2ccccc2)c2nnc(Cc3ccccc3)c(=O)n12 the results were HPGD block -12%.
COc1ccc(N2C(=O)CSC2c2ccc3c(c2)OCO3)c(OC)c1 (stereo not drawn) was read as HPGD block -3%.
For CC1CCN(CCCCOc2ccc(C(=O)c3ccccc3)cc2)CC1 the results were HPGD block -12%.
`O=[N+]([O-])c1ccc(-c2csc3[n+]2CCS3)cc1` gave HPGD block inconclusive.
Screening CCc1cc2cc3c(cc2nc1SCC(=O)Nc1cc(C)on1)OCO3 returned HPGD block -18%.
CCC(C)N1C(=O)CCC1C(=O)N1CCN(c2ccccc2F)CC1 (stereo not drawn) was read as HPGD block 2%.
`CCCCNC(=O)C1CCCN1C(=O)NC1CCCCC1` (stereo not drawn) gave HPGD block -9%.
COc1ccc(N=C/C=C2\C=C(c3ccccc3)OC(C)(C)O2)cc1 was read as HPGD block -29%.
`CCOC(=O)c1c(NC(C)=O)sc2c(O)cccc12` gave HPGD block -13%.
For CC1CC(C)CN(C(=O)c2ccncc2)C1 (stereo not drawn) the results were HPGD block -12%.
`CN(C)C=Nc1c(C(=O)c2ccccc2)sc2nccc(N(C)C)c12` gave HPGD block -15%.
COc1ccc(CN2CC(C(=O)NCc3ccccn3)CC2=O)cc1 (stereo not drawn) was read as HPGD block -15%.
`Cc1cc(C)cc(OCC(=O)OCC(=O)NCc2ccco2)c1` gave HPGD block -6%.
For CCOC(=O)c1ccc(NC(=O)CC2C(=O)N(c3ccc(F)cc3)C(=O)N2CCCOC)cc1 (stereo not drawn) the results were HPGD block -14%.
`Cc1noc2ncnc(Sc3c(Cl)cccc3Cl)c12` gave HPGD block -12%.
CC(C)c1nnc(SCC(=O)Nc2ccc3c(c2)OCO3)n1C was read as HPGD block -8%.
For O=C(Cn1cnc2ccccc2c1=O)c1ccc2ccccc2c1 the results were HPGD block inconclusive.
Screening CCOC(=O)c1cc2[nH]c3ccccc3c2[n+](-c2ccc([N+](=O)[O-])cc2)c1N returned HPGD block -3%.
CCN(Cc1cc2ccc(C)cc2[nH]c1=O)C(=O)c1cccnc1 was read as HPGD block -17%.
For CN(C)C(=S)Nc1ccc([N+](=O)[O-])cc1 the results were HPGD block -6%.
For CCCC(C1=C(O)CC(C)(C)CC1=O)C1C(=O)CC(C)(C)CC1=O (stereo not drawn) the results were HPGD block 0%.
Screening CCSc1nnc(NC(=O)c2cccc(S(=O)(=O)N(C)c3ccccc3)c2)s1 returned HPGD block -28%.
For COc1ccc(C(C#N)N2N=C(c3ccccc3)CC2c2ccccc2)cc1OC (stereo not drawn) the results were HPGD block -9%.
For Cc1[nH]c(=O)[nH]c(=O)c1S(=O)(=O)NCCc1ccc(S(N)(=O)=O)cc1 the results were HPGD block 3%.
Screening O=C(Nc1ccc(CSc2ccccc2)cc1)c1ccc(CN2CCOCC2)cc1 returned HPGD block -9%.
Screening N#C/C(=C/c1ccc(N2CCCCC2)o1)C(=O)Nc1ccc(Cl)cc1 returned HPGD block -9%.
CCCn1nnnc1NC(=O)c1ccc2ccccc2c1 was read as HPGD block -4%.
`COC(=O)c1ccc2c(c1)N(C)C(=O)CS2` gave HPGD block -8%.
COc1ccc(NC(=O)C2CCC(N3C(=O)C4C5C=CC(C5)C4C3=O)CC2)cc1 (stereo not drawn) was read as HPGD block -2%.
CC1(C)CC(O)C(C)(C)N1O (stereo not drawn) was read as HPGD block -13%.
Screening CCOc1ccc2[nH]c(=O)c(CN(Cc3cccs3)Cc3nnnn3C(C)(C)CC)cc2c1 returned HPGD block -28%.
Screening CSc1nnc(NC(=O)c2ccc(C)c(S(=O)(=O)N3CCOCC3)c2)s1 returned HPGD block 20µM*.
`O=C(Nc1nnc(CC(c2ccccc2)c2ccccc2)s1)c1ccco1` gave HPGD block -3%.
Screening COc1ccc(/C=C/C(=O)Nc2ccc(-n3nncc3-c3ccccc3)cc2)cc1OC returned HPGD block inconclusive.
For c1cc2c(cc1C1=Nn3c(nnc3C3CCCCC3)SC1)OCO2 the results were HPGD block -18%.
`C/C(N)=C(/C#N)C(=O)COC(=O)C1CCC(C(C)(C)C)CC1` (stereo not drawn) gave HPGD block -2%.
Screening COc1cccc(-n2c(SCC(=O)NC(C)(C)C)nnc2-c2ccoc2C)c1 returned HPGD block -14%.
CS(=O)(=O)c1ccccc1-c1nc(-c2cc(C(F)(F)F)cc(C(F)(F)F)c2)no1 was read as HPGD block -2%.
For CCCCOc1cc(C)nc(NCc2ccccc2)n1 the results were HPGD block inconclusive.
Cc1ccc(N(C(=O)CNC(=O)c2ccco2)C(C(=O)NCC2CCCO2)c2ccccc2)cc1 (stereo not drawn) was read as HPGD block -12%.
`O=C(CCN1C(=O)c2ccccc2S1(=O)=O)NCc1ccco1` gave HPGD block -16%.
O=C(COc1ccc(=O)n(-c2ccccc2)n1)Nc1ccccc1 was read as HPGD block -7%.
`COC(=O)C1=C(C(=O)OC)[C@@H]2N(Cc3ccccc3)c3ccccc3[C@@]23C[C@@H](C(=O)OC)N(C(=O)CC(C)C)C3=N1` gave HPGD block -20%.
For CCC(C)[C@H](NC(=O)Nc1ccc(S(N)(=O)=O)cc1)C(=O)O (stereo partly drawn) the results were HPGD block -13%.
Cc1cccc(Cn2cnc3c(NS(C)(=O)=O)c(C)c(C)cc32)c1 was read as HPGD block 4%.
For Cc1cc2ccccc2c(=O)n1CC(=O)N(C)c1ccc(F)cc1 the results were HPGD block -13%.
Screening Cc1ccsc1C(=O)Nc1cc(C(C)(C)C)nn1-c1ccccc1 returned HPGD block -10%.
For N#Cc1nc(-c2cccs2)oc1NCc1ccccc1Cl the results were HPGD block inconclusive.
`Nc1c(C(=O)Nc2ccc(Cl)c(Cl)c2)sc2nc(-c3cccnc3)ccc12` gave HPGD block -12%.
`CCCCCSc1nc(O)cc(=O)[nH]1` gave HPGD block -10%.
For O=c1cc(CSc2ccc(Cl)cc2)nc2nc[nH]n12 the results were HPGD block -15%.
For CCCCSc1nc2c(cnn2-c2ccc(Cl)cc2)c(=O)[nH]1 the results were HPGD block 3%.
Cc1cc(=O)oc2cc(O)c(O)cc12 was read as HPGD block inconclusive.
`CCN1CCN(c2ccc(NC(=O)CCc3c(C)nc4c(-c5ccccc5)c(C)nn4c3C)cc2)CC1` gave HPGD block -3%.
Cc1nc(-c2ccccc2)sc1C(=O)CSc1ccc(Br)cc1 was read as HPGD block -13%.
For Cc1ccc(CN2C(=O)CCC2C(=O)NCCN(CC(C)C)CC(C)C)cc1 (stereo not drawn) the results were HPGD block -7%.
Cc1nn(-c2ccccc2)c(C)c1C(=O)OC/C(O)=C(\C#N)c1nc2ccccc2[nH]1 was read as HPGD block -29%.
Screening COc1ccccc1CNC(=O)C1CC(=O)N(C2CCCC2)C1 (stereo not drawn) returned HPGD block -16%.
N/C(Cc1ccc([N+](=O)[O-])cc1)=N\OC(=O)COc1cccc2ccccc12 was read as HPGD block -10%.
For COc1ccccc1N1CCN(C(=O)c2cn(-c3ccccc3)nc2-c2cccnc2)CC1 the results were HPGD block -19%.
CC(NC(=O)COC(=O)/C=C/c1cccc(C(F)(F)F)c1)c1ccccc1 (stereo not drawn) was read as HPGD block -11%.
Screening COC1=C(c2ccccc2)C(=O)c2ccccc2C1=O returned HPGD block -7%.
For O=C(Nc1cccnc1)C1OCCc2ccccc21 (stereo not drawn) the results were HPGD block -6%.
`O=C(Nc1cc(S(=O)(=O)N2CCCCC2)ccc1Cl)c1ccccc1NS(=O)(=O)c1ccc(F)cc1` gave HPGD block inconclusive.

Entries from the list above containing a tert-butyl group, in the order listed:
For Cc1onc(-c2c(F)cccc2Cl)c1C(=O)Nc1sc2c(c1C#N)CCC(C(C)(C)C)C2 (stereo not drawn) the results were HPGD block inconclusive.
`C/C(N)=C(/C#N)C(=O)COC(=O)C1CCC(C(C)(C)C)CC1` (stereo not drawn) gave HPGD block -2%.
Screening COc1cccc(-n2c(SCC(=O)NC(C)(C)C)nnc2-c2ccoc2C)c1 returned HPGD block -14%.
Screening Cc1ccsc1C(=O)Nc1cc(C(C)(C)C)nn1-c1ccccc1 returned HPGD block -10%.

Part of the list above in order of SMILES length, descending.
For CCOC(=O)c1ccc(NC(=O)CC2C(=O)N(c3ccc(F)cc3)C(=O)N2CCCOC)cc1 (stereo not drawn) the results were HPGD block -14%.
COc1ccc(NC(=O)c2ccc(CNc3c(NC4CCCCC4)c(=O)c3=O)cc2)cc1OC was read as HPGD block 18µM*.
Screening COC1=C(c2ccccc2)C(=O)c2ccccc2C1=O returned HPGD block -7%.
